Six1-Eya2 inh = Six1/Eya2 interaction inhibition; AlphaScreen GST-Six1/His-Eya2 binding, biochemical; stronger effect = lower value; control for the full effect not named in the record; 360,000 compounds, 0.56% hits; AID 651725; activity change, % (concentration not given with the values); in the data active = activity change below about -65%; inconclusive = about -30% to -65%; inactive = above about -30%; further: on the % scale 0 is the no-effect control and ±100 the full control effect
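GST-Six1 + His-Eya2 (5X stock: 250/500 nM); Tris pH 8.0, 300 mM NaCl, 0.05% BSA, 0.02% Tween 20; GSH donor/Ni acceptor beads; 1 h 37 °C dark; AlphaScreen readout.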
PINK1 modulator = modulators of PINK1 expression. 410,000 compounds, 0.2% hits. Potency, µM (highest dose often 76.6 µM), for inactives: at the highest dose activation (PINK1 increase), hits mostly activators. PINK1 immunofluorescence, high-content cytometry, 24 h; active = well fitted activation curve with a large enough effect; inconclusive = small, poorly fitted or top-dose-only effect; inactive = flat fitted curve, though single readings scatter; cell line not stated here;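 further: potency means the concentration at half of the fitted maximal effect; % of control where 0% means no effect; nearly all actives have a fitted effect of over 65% in size; a mitochondrial uncoupler was the plate control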
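Readout is PINK1 immunofluorescence, quantified alongside mitochondrial, cell and nuclear markers by laser-scanning microplate cytometry. Cells from a stable line were exposed to compound titrations (5 concentrations) for 24 hours, with CCCP controls.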
Sfp PPTase inh = inhibitors of Bacillus subtilis Sfp phosphopantetheinyl transferase. Biochemical Sfp PPTase activity, qHTS. Potency, µM, inactives show max response, negative = inhibition, actives largely listed as inhibitors. 310,000 compounds, 3.5% hits. AID 1490; active means well fitted inhibition curve with a large enough effect; inconclusive means small, poorly fitted or top-dose-only effect, or another doubt; inactive means no such curve, though single readings can be large or run the other way;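 further: the enzyme is Sfp with the accession as filed and its product quenches rhodamine fluorescence; potency means the concentration at half of the fitted maximal effect; 0% = enzyme reaction without inhibitor and -100% = no enzyme wells; top concentration of the series not given in the record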
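Step 1, compound plus 15 nM Sfp-PPTase, 15 min, room temperature. Step 2, add rhodamine-CoA (5 uM) and BHQ-2-YbbR (12.5 uM). Step 3, read 525/598 nm fluorescence at 0 and 30 min.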
D2 ag = agonists of human D2 dopamine receptor (beta-arrestin); DiscoveRx PathHunter D2 beta-arrestin, luminescence, 90 min; 100% = 57 uM dopamine signal; activation, % (no concentration beside the values); 360,000 compounds, 0.084% hits; in the data active = activation above about 40%; inconclusive = about 15% to 40%; inactive = below about 15%; further: compound concentration not given in the record; the text of the record calls up to 30% inactive
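DiscoveRx PathHunter D2 beta-arrestin cells (2,100/well) attached overnight, then compound-stimulated 90 min at 37 C in HBSS/10 mM HEPES/0.1% Tween-20 buffer; beta-galactosidase complementation read by luminescence after 1 h at ambient temperature. Dopamine 57 uM final (EC100) as control.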
CtBP-E1A blk = blocks the CtBP interaction with E1A. AlphaScreen GST-E1A/His-CtBP binding, 1536-well; stronger effect = lower value; control for the full effect not named in the record. activity change, % (test concentration not listed). 340,000 compounds, 0.49% hits; in the data active means activity change below about -65%; inconclusive means about -30% to -65%; inactive means above about -30%; further: on the % scale 0 is the no-effect control and ±100 the full control effect
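In 5 uL wells, 23 nL compound meets equimolar GST-E1A and His-CtBP (5X stock 125 nM each) for 2 h, 37 °C. Beads (5X, 50 ug/mL) then 1 h, 37 °C, dark.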
D2 potentiator = potentiates the human D2 dopamine receptor allosterically. P14416. DiscoveRx D2 beta-arrestin cells, luminescence, 90 min; 100% = 57 uM dopamine signal. potentiation, % (concentration not given with the values). 360,000 compounds, 0.23% hits. AID 624464; active = potentiation of 50% or more; inconclusive = 30% to 50%; inactive = 30% or less;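 further: tested on top of an EC20 dose of dopamine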
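PathHunter D2 cells, attached overnight at 37 deg C, received compound in DMSO plus dopamine at EC20 (50 nM final) for 90 min at 37 deg C. Beta-arrestin recruitment was read as luminescence after 1 h with detection reagent at ambient temperature.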
TRPV1 potentiator = enhances activation of the human vanilloid receptor TRPV1; Q8NER1; TRPV1-expressing cells, Fluo-8 calcium influx, capsaicin EC20 potentiation; host cell line not named in the record; control for the full effect not named in the record; potentiation, % at 8.33 µM; 320,000 compounds, 0.02% hits; active means potentiation above 80%; inconclusive means 30% to 80%; inactive means below 30%; further: 0% is about no effect
Target sequence (Q8NER1 whole entry, looked up): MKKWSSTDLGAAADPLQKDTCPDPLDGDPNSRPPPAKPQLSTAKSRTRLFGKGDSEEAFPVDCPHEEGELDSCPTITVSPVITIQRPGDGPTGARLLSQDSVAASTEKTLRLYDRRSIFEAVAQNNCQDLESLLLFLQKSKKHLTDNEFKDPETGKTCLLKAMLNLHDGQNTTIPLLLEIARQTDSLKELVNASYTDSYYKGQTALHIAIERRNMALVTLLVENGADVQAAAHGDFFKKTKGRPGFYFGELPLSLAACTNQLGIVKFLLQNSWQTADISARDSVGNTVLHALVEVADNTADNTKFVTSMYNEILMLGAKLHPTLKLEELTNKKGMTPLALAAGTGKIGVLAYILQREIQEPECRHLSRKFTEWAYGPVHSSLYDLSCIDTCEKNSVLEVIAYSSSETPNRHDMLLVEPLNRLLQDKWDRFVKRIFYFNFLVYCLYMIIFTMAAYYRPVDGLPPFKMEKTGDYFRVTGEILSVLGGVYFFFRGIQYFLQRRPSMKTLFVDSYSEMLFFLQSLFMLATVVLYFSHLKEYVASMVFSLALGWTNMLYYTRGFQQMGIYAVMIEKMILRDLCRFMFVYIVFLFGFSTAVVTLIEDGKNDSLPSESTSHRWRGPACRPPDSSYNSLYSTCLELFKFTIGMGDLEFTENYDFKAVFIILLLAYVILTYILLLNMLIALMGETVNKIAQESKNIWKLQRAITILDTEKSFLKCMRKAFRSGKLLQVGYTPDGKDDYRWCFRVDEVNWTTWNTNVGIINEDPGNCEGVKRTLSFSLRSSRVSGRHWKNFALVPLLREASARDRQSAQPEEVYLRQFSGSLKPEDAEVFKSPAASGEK
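Fluo-8 calcium influx in TRPV1-expressing cells, kinetic read (ex 480/em 520 nm). Compound added and read 3 min for agonist activity, followed by capsaicin at EC20 final and 2 min further read for enhancement.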
Numbers without * were called inactive; ? = inconclusive; nt = not tested or not shown; [ ] = dose if it differs, or a comment.

SMILES	Six1-Eya2 inh	PINK1 modulator	Sfp PPTase inh	D2 ag	CtBP-E1A blk	D2 potentiator	TRPV1 potentiator
CCCCn1c(=O)[nH]c(=O)c2c1nc(-c1ccccc1OC(F)F)n2C	-9.5	-0.4%	10.4%	1.1	5.0	2.0	23.1
CCOc1ccc2nc(SCc3ccc(CC(=O)O)cc3)c(C#N)cc2c1	-17.4	2.1%	-10.4%	-2.8	-9.4	2.1	6.7
CC(=O)OCC1OC(OC2C[C@]3(C)C(CC(O)C4C([C@](C)(CCC=C(C)C)OC5OC(CO)C(O)C(O)C5O)CC[C@]43C)[C@@]3(C)CCC(O)C(C)(C)C23)C(O[C@@H]2OC(C)C(O)C(O)C2O)C(O)C1O (some centres undefined)	5.9	0.3%	nt	-1.8	-11.4	nt	nt
N#CCc1ccc(-c2cccc3nccn23)cc1	2.7	-0.4%	nt	-5.7	2.2	-0.7	nt
COc1ccc(CCNC(=O)c2c(O)c3cccc4c3n(c2=O)CC4)cc1OC	9.0	-1.9%	-1.1%	-1.3	-1.4	-8.3	-0.3
COc1cc(OC)nc(NC(=O)CS(=O)(=O)c2ccccc2)n1	6.2	-1.5%	-14.3%	0.1	-8.7	-12.3	?
COCCN(C(=O)COC(=O)c1ccccc1Nc1ccccc1)c1c(N)n(Cc2ccccc2)c(=O)[nH]c1=O	-1.3	0.2%	nt	-2.3	-2.5	-4.6	-7.3
CC(=O)Oc1ccc(C#C/C=C2\c3ccccc3C(=O)N2c2ccccc2)cc1	-10.7	0.6%	nt	2.8	-6.4	0.8	nt
CCc1ccc(OCC(=O)NCCc2ccc3c(c2)OCCO3)cc1	-2.5	-0.9%	nt	-3.0	4.0	-0.6	2.4
CCc1ccccc1N/N=C(/C)c1c(O)cc(C)oc1=O	2.6	3.8%	11.9%	5.1	-0.2	15.7	-2.0
O=C(NCCC(=O)N1CCN(c2cccc(Cl)c2)CC1)c1ccc(Br)cc1	-7.5	-1.0%	nt	2.3	-18.3	16.4	-15.1
COc1ccc(Cn2cnc3sccc3c2=O)cc1	1.4	-1.4%	15.6%	-2.7	-1.3	-6.9	-3.5
CCCCn1c(N)c(N(CC(C)C)C(=O)c2cccc(-n3cnnn3)c2)c(=O)[nH]c1=O	-1.0	0.6%	nt	-5.9	4.3	-19.7	10.6
O=S(=O)(c1ccccc1)N1CCN(c2ncccn2)CC1	8.8	11.6%[38.3 µM]	2.9%	-0.3	13.1	0.6	-3.7
CCN(CC)CCN1C(=O)C(=O)/C(=C(/O)c2ccc(OC)c(OC)c2)C1c1ccccn1 (centres undefined)	-6.9	3.6%	56.2µM*	-3.0	-9.9	-14.2	3.3
O=C1[C@H]2[C@@H](c3ccc(F)cc3)N3C(=O)N(c4cccc(Br)c4)C(=O)[C@@]3(Cc3ccc(Cl)cc3)[C@H]2C(=O)N1C1CCCCC1	1.3	3.8%	13.7%	-3.0	-13.5	-13.8	-7.5
COc1ccc(NC2CCCN(C(=O)c3ccccc3N3CCOCC3)C2)cc1OC (centres undefined)	0.3	1.4%	1.6%	8.1	-3.8	-8.2	-6.6
O=C(NCCS(=O)(=O)N1CCCCC1)c1ccccc1	-2.8	-0.6%	nt	1.5	-23.6	-7.5	-3.1
CC(Oc1ccc(Cl)cc1Cl)C(=O)Nc1cccc(O)c1 (centres undefined)	9.8	-2.5%	12.9%	1.7	6.3	4.9	-2.8
Cc1nc(-c2cccc(S(=O)(=O)N3CC(C)OC(C)C3)c2)cs1 (centres undefined)	-3.6	-0.2%	13.8%	-2.4	4.4	-8.1	2.2
COCCNC(=O)c1cc2cc(Br)cc(OC)c2oc1=O	0.8	-4.9%[38.3 µM]	-3.1%	0.1	6.3	-2.1	10.4
CC(=O)N/C(=C/c1ccccc1)c1ccccc1	1.7	0.1%	nt	-3.0	1.6	-5.1	-3.2
CCOC(=O)c1cc2c(ccn2C)n1Cc1ccccc1Cl	-28.5	8.1%	?	3.2	nt	-11.3	4.4
CC1CCCN(CCCNS(=O)(=O)c2cc(Br)cc3c2N(C(=O)C2CC2)CC3)C1 (centres undefined)	0.0	-2.4%	1.1%	4.6	-10.9	-12.9	?
Cc1c(C(=O)Nc2cc(S(=O)(=O)N3CCOCC3)ccc2N2CCN(C)CC2)oc2ccccc12	0.0	-1.6%	-20.8%	0.3	-6.2	-5.0	13.9

An excerpt from above, limited to CtBP-E1A blk and TRPV1 potentiator.
molecule,CtBP-E1A blk,TRPV1 potentiator
CCCCn1c(N)c(N(CC(C)C)C(=O)c2cccc(-n3cnnn3)c2)c(=O)[nH]c1=O,4.3,10.6
O=S(=O)(c1ccccc1)N1CCN(c2ncccn2)CC1,13.1,-3.7
CCN(CC)CCN1C(=O)C(=O)/C(=C(/O)c2ccc(OC)c(OC)c2)C1c1ccccn1 (centres undefined),-9.9,3.3

Sfp PPTase inh, what is marked active above.
structure | Six1-Eya2 inh | PINK1 modulator | Sfp PPTase inh | D2 ag | CtBP-E1A blk | D2 potentiator
CCN(CC)CCN1C(=O)C(=O)/C(=C(/O)c2ccc(OC)c(OC)c2)C1c1ccccn1 (centres undefined) | -6.9 | 3.6% | 56.2µM* | -3.0 | -9.9 | -14.2

Next records.
SMILES	Six1-Eya2 inh	PINK1 modulator	Sfp PPTase inh	D2 ag	CtBP-E1A blk	D2 potentiator	TRPV1 potentiator
C=CCn1c(SCCN2CCCCC2)nc2c1c(=O)[nH]c(=O)n2C	3.0	-0.7%	-3.0%	-3.1	0.0	-9.6	-5.1
COc1ccc(CCN2CC(C(=O)NCc3ccccc3)CCC2=O)cc1 (centres undefined)	-1.4	-1.3%	6.4%	-3.0	2.8	-25.2	-3.0
CC(C)C[C@H]1CNC(=O)C(=O)N1C[C@H]1CCCN1C[C@H](Cc1ccc(O)cc1)N1C[C@H](CC(C)C)N(CC2CCCCCC2)C(=O)C1=O	-14.4	-0.9%	nt	nt	2.4	nt	nt
Cc1cccc(NS(=O)(=O)c2cc3c4c(c2)CCN4C(=O)CC3)c1C	2.7	-0.7%	nt	-4.3	-2.6	-6.9	-12.4
CCOC(=O)C1CCN(C(=O)CCn2c(=O)c3cccn3c3cccnc32)CC1	1.4	2.5%	14.1%	1.7	6.1	-8.8	-0.9
O=C(Nc1ccc(N2CCN(C(=O)c3ccco3)CC2)cc1)c1ccccc1F	12.5	5.1%	-12.0%	-4.4	14.6	10.1	-12.2
CCc1[nH]c(=S)c(C#N)c2c1CCCC2	-14.0	-2.4%	?	-3.0	-6.0	0.6	6.1
COc1ccc(CCC(=O)N2CCN(S(=O)(=O)c3ccc(OC)c([N+](=O)[O-])c3)CC2)cc1	-5.9	-0.7%	nt	-2.4	3.6	-15.9	nt
Cc1cccc2sc(N(CCCN(C)C)C(=O)CCS(=O)(=O)c3ccccc3)nc12	-5.2	0.9%	?	-3.4	0.0	-33.7	-3.2
CN(C)S(=O)(=O)c1cccc(NC(=O)c2c[nH]c3ccccc23)c1	-3.6	2.2%	18.4%	6.0	-1.5	5.8	8.4
CCc1ccc(C(=O)c2cnc3ccc(OC)cc3c2N2CCN(CC)CC2)cc1	-14.4	2.1%	7.1%	-0.5	-5.7	-9.8	-28.2
COc1cccc(CNC(=O)CCS(=O)(=O)c2ccc3c(c2)NC(=O)CO3)c1	-10.1	-0.1%	14.7%	2.1	-8.4	13.7	9.6
CCC1Sc2ccc(S(=O)(=O)CCC(=O)NCc3cccs3)cc2NC1=O (centres undefined)	-1.2	5.6%	20.6%	-4.9	-16.5	-24.0	0.3
Cc1ccnc(NC(=O)c2cccc(NC(=O)Cc3ccccc3)c2)c1	-2.4	-0.4%	10.2%	0.0	0.0	1.9	-4.4
Cc1ccc2[nH]c(C(=O)O)c(-c3ccccc3)c2c1	-6.5	0.1%	1.4%	-1.4	-2.6	2.5	4.0
Oc1cc2ccccc2nc1-c1ccccc1Cl	-0.8	0.4%	11.7%	-0.5	-0.4	0.8	8.9
CCN1C(=O)c2cccc3c(S(=O)(=O)Nc4nc(C)cs4)ccc1c23	-17.4	7.0%	-3.0%	-5.2	-10.5	-3.2	12.1
Cc1cc(NC(=O)CCC(=O)N(CC(=O)NC2CCCC2)c2ccc(C(C)C)cc2)no1	5.1	3.1%	14.7%	-5.1	21.1	-4.4	-15.5
COC(=O)c1ccc(N=C2S/C(=C\c3cc(C)n(-c4cccnc4)c3C)C(=O)N2C)cc1	-2.1	0.8%	-17.8%	-3.4	-6.0	-3.9	7.9
CCNCc1nc2cc(OC)c(OC)cc2c(=O)[nH]1	-7.1	0.7%[38.3 µM]	?	0.1	-7.4	-9.6	3.6
O=C1NC[C@@H](CCCCN2C[C@H](Cc3ccccc3)N(CCC3CCCCC3)C(=O)C2=O)N(CCc2ccccc2)C1=O	-15.6	7.2%	nt	nt	-9.9	nt	nt
COc1ccc(Br)cc1CNC(=O)Cc1c(C(=O)O)[nH]c2ccc(Cl)cc12	-5.3	-1.4%	31.3%[activator]	-0.4	0.4	-0.5	16.1
CCN(CC1CCCN(CCc2cccc(F)c2)C1)C(=O)c1cc2ccccc2o1 (centres undefined)	-8.6	-0.6%	9.7%	-10.7	-4.3	-35.4	-2.6
CN(C[C@H](Cc1ccccc1)N(C[C@H](Cc1ccccc1)N(CC1(c2ccccc2)CC1)N=O)N=O)N=O	-9.3	1.3%	1.4%	0.2	-10.0	-0.7	22.6
CC(NC(=O)c1cc2cc([N+](=O)[O-])ccc2oc1=O)C1CCCO1 (centres undefined)	0.6	0.3%	6.6%	-1.8	8.3	-27.4	-10.7
COCCCN(Cc1cc(OC)c(OC)c(OC)c1)C(=S)Nc1cccc(Cl)c1	-0.5	1.6%	nt	-3.4	-4.6	-8.7	nt
Cc1nc2ccccc2n1CC(=O)c1ccccc1	4.7	-0.5%	-1.2%	-1.0	nt	-1.6	0.8
Cc1ccc(C(=O)NCC(=O)Nc2ccccc2C)o1	6.1	0.1%	nt	-1.8	1.1	-0.5	nt

Single entries from the list.
CtBP-E1A blk, `CC(=O)Oc1ccc(C#C/C=C2\c3ccccc3C(=O)N2c2ccccc2)cc1` stands at -6.4
CtBP-E1A blk, `CN(C)S(=O)(=O)c1cccc(NC(=O)c2c[nH]c3ccccc23)c1` stands at -1.5

Screening data as filed in PubChem.

Random draw from the library; any-hit rate near 3.7%.
